LT uptake inh – blocks cellular internalization of anthrax lethal toxin; Potency, µM (top dose mostly 40 µM), for the others: top-dose activity change, negative = inhibition, usual class: inhibitors; hit rate 0.67% among 70,000; Cells, anthrax lethal toxin internalization, FRET ratio (460/530); active = well fitted falling ratio curve with the 530 nm signal flat; inconclusive = other ratio curves, or a change in one channel alone; inactive = flat curves in the ratio and both channels; the % refers to the ratio; also: % is scaled to controls: 0 for no effect and ±100 for the full control effect; nearly all actives have a fitted effect of over 50% in size; tested in ME-180 cells; beta-lactamase reporter
SmPrx2 inh – Schistosoma mansoni Prx2 inhibition; S. mansoni Prx2 activity coupled to TGR/GSH (TGR is thioredoxin glutathione reductase), NADPH fluorescence loss, qHTS; some inactives read as strong as hits; Potency, µM; hit rate 0.07% among 65,000; AID 448; active means full or partial inhibition curve with a strong effect at the top dose; inconclusive means weaker partial or single-point curve; inactive means no accepted curve; also: series up to 57 µM; many of its hits are not listed in these tables
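Enzyme mix: 100 uM NADPH, 25 nM TGR, 700 uM GSH, 50 nM Prx2 in 100 mM phosphate pH 7.4, 10 mM EDTA, 0.01% Tween-20. 15 min RT with compound; NADPH/GSH added, H2O2 starts reaction; NADPH fluorescence read 8 min.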
Active calls of the source: *; ? = inconclusive; . = no result given; & = joins results of further samples; [ ] = remark or other dose. Potency is read from the fitted curve at half-maximal effect.

nr	canonical_smiles	LT uptake inh	SmPrx2 inh
1	COc1ccc(NC(=O)Cc2nnc(SCC(=O)Nc3cc(C)ccc3OC)n2C)cc1	22%	>57
2	CCOC(=O)c1csc(NC(=O)c2ccc(S(=O)(=O)N(CC)CC)cc2)n1	-3%&-4%	>57&>57
3	Cc1cc(NC(=O)CSc2nnc(COc3cccc(C)c3C)n2C)no1	5%	>57
4	Cc1ccc(NC(=O)Cn2nc(C)c3ccccc3c2=O)c(C)c1	-8%	>57
5	COc1cccc(/C=N/n2c(SC)nnc2-c2ccccc2)c1OC	-19%	.
6	CCN1CCN(c2c(Cl)cccc2NC(=O)c2ccco2)CC1	-1%	>57
7	CC1=CC(C)(C)Nc2ccc(OC(=O)c3cccnc3)cc21	?	>57
8	C[N+]1(C)CCc2cc3c(cc2[C@@H]1[C@@H]1C(=O)Oc2c1ccc1c2OCO1)OCO3	?	>57&>57
9	CCOC(=O)Cn1c(=N)n(Cc2ccccc2F)c2ccccc21	-5%	>57
10	O=C1CC(N2CCN(c3nc4ccccc4s3)CC2)C(=O)N1Cc1cccs1 (centres undefined)	-25%	>57
11	CCOC(=O)c1ccccc1NC(=O)c1cccc2c1C(=O)N(C1CCN(C(=O)OCC)CC1)C2	1%	>57
12	Cc1cccc(N)c1C	-7%	.
13	Cc1cc(N2CCOCC2)nc(SCC(=O)c2ccc(Cl)cc2)n1	?	>57
14	CC(=O)c1cccc(NC(=O)c2oc(C)nc2C)c1	9%	>57
15	O=C(CSc1nc2ccccc2c(=O)[nH]1)N1CCCCCC1	16%	>57
16	CCC(C)n1cnc2c(c1=O)c1nc3ccccc3nc1n2Cc1ccc2c(c1)OCO2 (centres undefined)	.	>57
17	CCc1ccccc1NC(=O)CSc1nnc([C@@H]2CCCN2C(=O)OC(C)(C)C)o1	-18%	.
18	CCNC(=O)NC(=O)COc1ccccc1C#N	8%	>57
19	Cc1csc(=N)n1-c1ccc(Cl)cc1	-23%	>57
20	Cc1cc(NC(=O)c2cc(-c3cccs3)on2)no1	-4%	>57
21	COC(=O)c1cc(NC(=O)CSc2nc(C)cc(=O)[nH]2)cc(C(=O)OC)c1	-6%	>57
22	NC(=O)CCS(=O)(=O)c1ccccc1	-10%	.
23	CC(=O)C1=C(O)C(=O)N(Cc2ccco2)C1c1ccc2c(c1)OCO2 (centres undefined)	0%	>57
24	O=C(COC(=O)C1CCCN1S(=O)(=O)c1ccc(Cl)cc1)Nc1ccc2c(c1)OCO2 (centres undefined)	-14%	>57

Results in sequence from the list:
Entries 17 to 24 in LT uptake inh: -18%, 8%, -23%, -4%, -6%, -10%, 0%, -14%
Entries 17 to 24 in SmPrx2 inh: ., >57, >57, >57, >57, ., >57, >57

(further entries)
nr	canonical_smiles	LT uptake inh	SmPrx2 inh
25	Cn1cccc1C(=O)N1CCC2(CC1)CCN(C(c1ccccc1)c1ccccc1)CC2	0%	>57
26	O=[As](O)(O)c1ccc2nc3cc([As](=O)(O)O)ccc3nc2c1	1%[8 µM]	.
27	O=C(O)c1ccc(-c2ccccc2C(F)(F)F)o1	19%	>57
28	c1ccc(-c2[nH]ncc2-c2nc3ccccc3[nH]2)cc1	10%	>57
29	NC(=O)CSc1nc(-c2ccccc2Cl)ns1	15%	>57
30	Cc1nc2ccccc2c(=O)n1NC(=O)c1c(O)c2ccccc2n(C)c1=O	5%	>57
31	CSc1ccccc1NC(=O)c1noc2c1CCC2	?	>57
32	CCCCOc1ccc(NC(=O)CN2CCN(C(=O)OCC)CC2)cc1	4%	>57
33	Cc1cc(C)cc(-c2nnc(SCC(=O)NCc3cccs3)o2)c1	?	>57
34	Clc1ccccc1C(Nc1cnccn1)Nc1cnccn1	7%[8 µM]	>57
35	COc1ccc(N2C(=O)CC(Cc3ccccc3)C2=O)cc1 (centres undefined)	-1%	>57
36	O=C(O)c1ccccc1C(=O)OCc1ccccc1	1%	.
37	C[C@@]12CCC[C@](C)(C(=O)O)[C@@H]1CCc1ccc(O)cc12	?	>26
38	CC(C)(C)OC(=O)N1CCOCCOCCN(C(=O)OC(C)(C)C)CCOCC1	3%	>57
39	CC(=O)N1CCN(C(=O)CCc2c[nH]c3ccccc23)CC1	4%	>57
40	CCn1c(COc2ccccc2)nnc1SCC(=O)Nc1cc(OC)ccc1OC	-13%	>57
41	O=c1c2ccccc2oc2cc(O)c([C@@H]3COC[C@@H](CO)[C@@H](O)[C@@H](O)[C@H]3O)c(O)c12	?	>57
42	O=C(NCc1ccccn1)c1ccc(Cl)cc1Cl	?	>57
43	Cc1cc(NC(=O)c2cnn3cccnc23)n(-c2ccccc2)n1	.	>57
44	CCOC(=O)c1nnn(-c2nonc2-n2cccc2)c1CN1CCC(C)CC1	8%	>57
45	COC(=O)c1ccccc1NC(=O)c1cnn2c(C(F)F)cc(C3CC3)nc12	3%	>57
46	CCOC(=O)c1[nH]c(=O)[nH]c1COC(=O)c1cc2ccccc2o1	-3%	?
47	COC(=O)[C@@]1(Cc2ccc(F)cc2)[C@H]2c3cc(C(=O)N4CCCC4)n(CCc4ccc(OC)c(Br)c4)c3C[C@H]2CN1C(=O)c1ccccc1	?	>57
48	CCOC(=O)c1c(C)[nH]c(C(=O)COC(=O)c2cnc(C)cn2)c1C	3%	>57
49	CCOC(=O)N1CCC(NC(=O)Cn2c3c(c(-c4ccccc4Cl)cc2=O)CCC3)CC1	0%	>57
50	Cc1c(C(=O)OCC(=O)c2ccc3c(c2)OCCO3)oc2ccccc12	-13%	>57
51	CCCCN(C(=O)NC(=O)C1=C(N2CCOCC2)/C(=C/c2ccccc2)CC1)S(C)(=O)=O	?	>57
52	CC1(C(=O)NCCc2c[nH]c3ccccc23)C=CCN1C(=O)c1ccccc1 (centres undefined)	3%	.
53	CN1CCN(c2cc(=O)n(-c3ccc(Cl)cc3)c(=O)[nH]2)CC1	-4%	>57
54	Oc1c(CN2CCOCC2)ccc(CN2CCOCC2)c1O	-6%[8 µM]	>57
55	O=C(NC1CCCc2ccccc21)C1CCN(S(=O)(=O)N2CCCCCC2)CC1 (centres undefined)	-22%	>57
56	Fc1ccc(-c2nn3c(C4COc5ccccc5O4)nnc3s2)cc1 (centres undefined)	-10%	>57
57	COc1ccc(NC(=O)CSc2nnc(CN3CCOCC3)n2-c2ccccc2)cc1Cl	21%	>57
58	CC1(C)CC(=O)c2c(O)cc(O)cc2O1	?	>57
59	COc1ccc2cc(C(c3nnnn3Cc3ccc(F)cc3)N3CCCCCC3)c(=O)[nH]c2c1 (centres undefined)	?	>57
60	Cc1cc(OCC(=O)Nc2ccc(S(=O)(=O)N3CCN(C)CC3)cc2)cc(C)c1Cl	-15%	?
61	Cc1ccc(-c2nnn(CC(=O)N(c3cccc(F)c3)C(C(=O)NC3CCCC3)c3ccco3)n2)o1 (centres undefined)	-9%	>57
62	CCOc1ccc(CCNC(=O)C2CCCN(c3nn4c(=O)cc(C)nc4s3)C2)cc1OCC (centres undefined)	-6%	>57
63	CCc1c(C)sc(NC(=O)c2cc(-c3ccco3)on2)c1C#N	-10%	>57
64	Cn1c(=O)n(CC(=O)N2CCOCC2)c2ccccc21	7%	>57
65	CCc1nc(SCC(=O)Nc2cc(C)on2)c2c(C)c(C)sc2n1	-2%	>57
66	Cc1ccccc1-n1nnnc1-c1ccccc1	-3%	.
67	Cc1ccc2c(c1)N(CC(=O)c1cccc(Cl)c1)C(=O)C(C)O2 (centres undefined)	-13%	>57
68	CCOC(=O)Cc1csc(NC(=O)COc2ccc(OC)cc2)n1	?	>57
69	COc1ccc(NC(=O)c2ccco2)cc1N	-9%	>57
70	NC(N)=[N+]1CCc2ccccc2C1	3%	>57
71	Cc1ccc(N(C(=O)c2ccc3c(c2)OCO3)C2C=CS(=O)(=O)C2)cc1 (centres undefined)	10%	>57
72	O=C(O)C(O)(c1ccccc1)C1CCCC1 (centres undefined)	6%	>57
73	COC(=O)C(C)Sc1nnc(Cc2cc(=O)[nH]c(=O)[nH]2)n1-c1ccc(Cl)cc1 (centres undefined)	1%	>57
74	CSc1nnnn1CCn1nnnc1SC	9%	>57
75	O=C(Nc1cccc(Cl)c1)C1CCCN(S(=O)(=O)c2cnc[nH]2)C1 (centres undefined)	6%	>57
76	CCOc1ccc(NCCC(=O)c2ccc3c(c2)OCO3)cc1	.	>57
77	Cc1cc(-n2c(C)cc(C(=O)CN3C(=O)NC4(CCCCC4C)C3=O)c2C)no1 (centres undefined)	-2%	>57
78	COc1ccc(S(=O)(=O)N2CCC(n3cnc4cc(C(F)(F)F)ccc43)CC2)cc1	?	>57
79	O=C1CCCC2=C1C1(CCCC1)N=C(Nc1nc3ccccc3o1)N2	1%	>57
80	CC(Cc1ccccc1)[n+]1cc(/N=C(\N)[O-])on1 (centres undefined)	-3%	>57

Further structures follow.
nr	canonical_smiles	LT uptake inh	SmPrx2 inh
81	COc1ccc(C)cc1C(=O)C1CC(C(=O)O)C(C)(C)C1C (centres undefined)	11%	>57
82	COc1ccccc1N1CCN(CCc2n[nH]c(=S)n2-c2ccccc2)CC1	-8%	>57
83	CCCS(=O)(=O)N1CCCC(C(=O)NCCc2ccc(OC)c(OC)c2)C1 (centres undefined)	-5%	>57
84	COc1cccc(-c2nc(CS(=O)CC(=O)NCCCOC(C)C)c(C)o2)c1 (centres undefined)	4%	>57
85	NC(=O)COC(=O)c1ccc(Oc2ccccc2)cc1	2%	>57
86	CC(=O)N1CC(=O)Nc2ccc(Cl)cc2C1c1ccc(F)cc1 (centres undefined)	8%	>57
87	COc1cccc(-c2cncnc2NCc2ccccc2OC)c1	-15%	>57
88	CN(C)S(=O)(=O)c1cccc(C(=O)N(Cc2ccc(F)cc2)Cc2ccco2)c1	?	>57
89	O=C(CSc1nc(-c2ccco2)cc(C(F)(F)F)n1)Nc1ccc(C(=O)N2CCCCC2)cc1	?	>57
90	Cc1cc(NC(=O)c2ccc3c(c2)C(=O)N(CCC(C)C)C3=O)no1	.	>57
91	O=C(Nc1cccc(F)c1)N1CC2(CCN(C(=O)c3ccco3)CC2)C1	-13%	>57
92	COCCNC(=O)Cn1c(=O)n(Cc2ccc(C(=O)NCc3ccco3)cc2)c(=O)c2ccccc21	4%	>57
93	NS(=O)(=O)c1ccc(CCNC(=O)CCCC2=NS(=O)(=O)c3ccccc3N2)cc1	14%	>57
94	CC(=O)N(CC1CCCO1)c1nnc(-c2cnccn2)s1 (centres undefined)	8%	>57
95	Cc1ccc(C)c(/C(O)=C2\C(=O)C(=O)N(Cc3cccnc3)C2c2cccnc2)c1 (centres undefined)	-16%	>57
96	O=C(O)c1cc(-c2ccc(-c3ccccc3)cc2)nc2cc3ccccc3cc12	-17%[8 µM]	>57

Ordered by number of heavy atoms (descending): part of the list above.
nr	canonical_smiles	LT uptake inh	SmPrx2 inh
92	COCCNC(=O)Cn1c(=O)n(Cc2ccc(C(=O)NCc3ccco3)cc2)c(=O)c2ccccc21	4%	>57
89	O=C(CSc1nc(-c2ccco2)cc(C(F)(F)F)n1)Nc1ccc(C(=O)N2CCCCC2)cc1	?	>57
95	Cc1ccc(C)c(/C(O)=C2\C(=O)C(=O)N(Cc3cccnc3)C2c2cccnc2)c1 (centres undefined)	-16%	>57
88	CN(C)S(=O)(=O)c1cccc(C(=O)N(Cc2ccc(F)cc2)Cc2ccco2)c1	?	>57
91	O=C(Nc1cccc(F)c1)N1CC2(CCN(C(=O)c3ccco3)CC2)C1	-13%	>57
90	Cc1cc(NC(=O)c2ccc3c(c2)C(=O)N(CCC(C)C)C3=O)no1	.	>57
87	COc1cccc(-c2cncnc2NCc2ccccc2OC)c1	-15%	>57

(continued)
nr	canonical_smiles	LT uptake inh	SmPrx2 inh
97	CCOCCn1cnc2sc(C(=O)Nc3nc(C)c(C(=O)OCC)s3)c(C)c2c1=O	-2%	>57
98	COc1ccc(-n2c(COc3ccccc3)nnc2SCc2ccc(C#N)cc2)cc1	-2%	>57
99	O=S(=O)(c1cccs1)N1CN(CC2CCCO2)c2nc3ccccc3nc21 (centres undefined)	?	>57
100	O=C(Nc1cccc(C(F)(F)F)c1)c1cccnc1N1CCCC1	-10%	>57
101	COc1cc2c(cc1OC)CN(C(=O)CSc1nnc3scc(-c4ccccc4)n13)CC2	6%	>57
102	COc1cccc(-c2cc(C(=O)NCc3ccco3)no2)c1	14%	>57
103	CCOc1ccc(CC(=O)Nc2c(C(N)=O)oc3ccccc23)cc1OCC	-2%	>57
104	CCn1c(=O)c(C(=O)NCc2ccccn2)c(O)c2ccccc21	-4%	>57
105	Cc1ccc(OC(=O)c2cccc(C(=O)Oc3ccc(C)cn3)n2)nc1	4%	>57
106	CCOc1ccc(N(CC(=O)NC(C)(C)C)S(=O)(=O)c2c(C)noc2C)cc1	-24%	>57
107	O=C(CCSc1ccccc1)NCCN1CCOCC1	-2%	>57
108	Cc1oc(-c2ccccc2F)nc1CS(=O)(=O)CC(=O)N1CCOCC1	9%	>57
109	Cc1ccc(C=Nc2ccc(N(C)C)cc2)o1	?	.
110	Cc1ccccc1N1C(=O)N(c2cccc(C(F)(F)F)c2)C2CS(=O)(=O)CC21 (centres undefined)	0%	>57
111	Nc1[nH]c(=S)[nH]c(=O)c1-c1ccccc1	-10%	>57
112	COc1cccc(-c2nnc(NC(=O)c3ccc(S(=O)(=O)N4CCOCC4)cc3)o2)c1	7%	>57
113	CCOC(=O)C(NC(C)=O)(Nc1ccc(S(=O)(=O)Nc2cc(C)nc(C)n2)cc1)C(F)(F)F (centres undefined)	-6%	>57

A portion of the library, so the mix of outcomes need not match the whole.
